Vif TR-FRET: inhibitors of Vif binding to APOBEC3G peptide, primary screen, biochemical, TR-FRET, GST-Vif 1-94, biotin-A3G peptide, dose response retest (AID 1117319). TR-FRET GST-Vif / biotin-A3G peptide binding; higher % means a stronger effect; test concentration not given here; strong numbers were not always called active. inhibition, %, or IC50 in µM where a hit was titrated. 260,000 compounds, 0.57% hits;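 active = above the screen mean plus three standard deviations and confirmed in dose response; inconclusive = results disagree or hit not tested in dose response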;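 also: Vif residues 1-94 fused to GST binding biotinylated APOBEC3G peptide 110-148; 0% = full assay without inhibitor and 100% = GST in place of GST-Vif; retest series ran down from 100 µM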
HNF4A DNA FP: change in binding of human HNF4 alpha to DNA. HNF4a-FITC DNA binding, fluorescence polarization, 1 h. 360,000 compounds, 0.3% hits. activity change, % at 10 µM. AID 1224865; in the data active = activity change above about 30%, passing the limit was not always enough;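 also: controls were the assay level and a saturating level of protein; the project sought stronger binding though the title names inhibitors; some compounds called inactive have numbers as strong as hits; positive values seem to mean higher polarization but the record does not say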
Bfl-1 A1 inh: inhibitors of the anti-apoptotic protein A1, read as caspase activation; MEF A1-2A-BIM cells, Caspase-Glo 3/7 luminescence, 3 h; percent of clofoctol response, vehicle zero; caspase activation, % (no concentration beside the values); 330,000 compounds, 0.066% hits; AID 2462;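 active = over half of replicate activation scores above 10%, or exactly half above 10 with the replicate mean above 10; inconclusive = replicate mean below 10 yet half the replicates above 10; inactive = over half of replicates below 10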;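 also: wells of about 30 µL received 50 nL stock; many hits fall short of the cut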
LANA-H2B inh: blocks KSHV LANA binding to histone H2A/H2B; Q9QR71; cell-free LANA-H2A/H2B peptide, fluorescence polarization; inhibition, % (concentration not given with the values); 320,000 compounds, 0.6% hits; AID 2629; in the data active = inhibition mostly above about 10%, no sharp cut-off; inactive = mostly below about 6.7%;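 also: stock transfer was 7.5 nL into about 10 µL; 0% = median of vehicle wells and 100% = median of positive control wells; one replicate is shown; the record names a cut of 25% in any replicate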
E coli growth: E. coli growth inhibition | Escherichia coli growth, OD600, 23 h; hits give low values | OD600 absorbance (test concentration not listed) | 330,000 compounds, 0.21% hits;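 active = OD600 absorbance below the run mean of sample wells minus 3.6 SD, in any replicate, cut at about 0.56 in these data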;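 also: stock transfer was 300 nL into about 60 µL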
B2AR ag: activates human beta-2 adrenergic receptor causing internalization | AID 504454 | response, % (concentration not given with the values) | 340,000 compounds, 0.43% hits | P07550 | Am2.2-beta2AR cells, FAP receptor internalization, flow cytometry; reference of the scale not given here;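 active = response above a set limit, near 3 SD of response in nonfluorescent compounds, cut at about 42% in these data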;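 also: stock transfer was 100 nL into about 11 µL; a reference agonist was the positive control; negative values mostly stem from fluorescent compounds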
Target sequence (P07550 whole entry, looked up): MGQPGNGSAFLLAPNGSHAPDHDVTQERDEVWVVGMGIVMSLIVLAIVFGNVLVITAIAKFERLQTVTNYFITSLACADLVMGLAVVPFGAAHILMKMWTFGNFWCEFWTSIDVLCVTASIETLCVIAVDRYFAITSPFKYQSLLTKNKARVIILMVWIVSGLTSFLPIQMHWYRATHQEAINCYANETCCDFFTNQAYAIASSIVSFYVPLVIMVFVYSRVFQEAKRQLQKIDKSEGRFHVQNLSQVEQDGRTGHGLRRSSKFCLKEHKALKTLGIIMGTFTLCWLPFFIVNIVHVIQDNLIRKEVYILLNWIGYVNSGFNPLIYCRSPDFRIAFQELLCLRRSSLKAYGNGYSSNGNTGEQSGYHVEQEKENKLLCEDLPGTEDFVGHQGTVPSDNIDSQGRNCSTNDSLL
UCH37 inh: inhibitors of human deubiquitinating enzyme UCH37 | inhibition, % (no concentration beside the values) | purified proteasome/UCH37, Ub-AMC cleavage fluorescence | 330,000 compounds, 0.33% hits | AID 588478 | Q9Y5K5;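 active = mean of two replicates above 20%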;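 also: 0% = compound-free wells with enzyme and 100% = wells lacking proteasome; stock transfer was 100 nL into about 20 µL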
Target sequence (Q9Y5K5 whole entry, looked up): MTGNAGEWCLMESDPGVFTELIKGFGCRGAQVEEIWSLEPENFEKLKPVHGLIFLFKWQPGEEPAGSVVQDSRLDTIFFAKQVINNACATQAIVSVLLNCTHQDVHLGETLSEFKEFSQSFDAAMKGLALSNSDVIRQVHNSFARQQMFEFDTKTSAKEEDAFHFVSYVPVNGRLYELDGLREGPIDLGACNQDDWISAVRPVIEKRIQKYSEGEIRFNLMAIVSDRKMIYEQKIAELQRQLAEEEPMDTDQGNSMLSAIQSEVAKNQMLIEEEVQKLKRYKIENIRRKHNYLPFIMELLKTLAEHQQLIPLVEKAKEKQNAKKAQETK
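system = Proteasome-associated human UCH37 deubiquitinase | amount = 0.15 nM proteasome as dispensed | medium = pH 7.4 Tris-HCl (50 mM) with ovalbumin, ATP-MgCl2, DTT | incubation = 30 min preincubation with enzyme, 25 min cleavage at room temperature | detection = AMC fluorescence 355/460 nm | read-out basis = percent inhibition | controls = no-proteasome and no-compound wells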
An asterisk follows results filed as active; ? = inconclusive; . = not tested or not shown; & = joins results of further samples.

SMILES | Vif TR-FRET | HNF4A DNA FP | Bfl-1 A1 inh | LANA-H2B inh | E coli growth | B2AR ag | UCH37 inh
CCOC(=O)c1ccc(NC(=O)COc2cc(=O)n(CC)c3ccccc23)cc1 | -16% | 5.0 | 0.2 | 5.5 | 0.77 | 1 | 4.7
CCC1(CC)NC(=O)N(CC(=O)OC(C)C(=O)Nc2ccc(Cl)cn2)C1=O (stereo not drawn) | -11% | -0.9 | 0.1 | -1.9 | 0.68 | -1 | 2.3
CC(=O)Nc1ccc(S(=O)(=O)N2CCN(CCN3CCOCC3)CC2)cc1Cl | ? | 3.9 | -0.3 | 6.3 | 0.61 | 2 | -0.2
CC(=NNC(=S)N1CC2CCC(CC2)C1)c1cnccn1 | 6% | -2.6 | . | . | . | -11 | .
C=C1CCC(O)C2(C)CCC3C(C)C(=O)OC3C12O (stereo not drawn) | -6% | -0.9 | 1.3 | -5.8 | 0.63 | -1 | 3.1
CCCCn1c(N)c(N(CC(C)C)C(=O)COC(=O)Cc2cccc(OC)c2)c(=O)[nH]c1=O | -1% | -1.6 | 1.1 | 2.7 | 0.69 | 2 | 0.8
CC(=O)Nc1ccc(Nc2cc(C)nc3ccccc23)cc1 | . | 4.7 | 0.6 | 8.2 | 0.68 | -7 | 13
O=C(NC12CC3CC(CC(C3)C1)C2)OCCNC1CCCCC1 | . | 2.5 | -0.3 | -2.2 | 0.67 | -10 | 3.5
CN1CCN(C(=O)c2cn(-c3ccccc3)nc2-c2cccs2)CC1 | 5% | 0.8 | 0.5 | -11 | 0.71 | -13 | -0.9
CC1CN(C(=O)c2ccc(COc3ccccc3Br)o2)CC(C)O1 (stereo not drawn) | 2% | 3.2 | -0.2 | 2.5 | 0.67 | -12 | 5.2
CCc1ccc(NC(=O)CSc2nnc(COc3ccc4c(c3)CCCC4)o2)cc1 | 1% | -0.8 | -0.4 | -1.5 | 0.8 | 0 | 2.1
Cc1ccc(OCc2n[nH]c(=S)n2C2CCCCC2)cc1 | 4% | -2.7 | 0.5 | 2.6 | 0.68 | 0 | 3.9
CSc1ncnc2c1ncn2CC(=O)C1CCC2C3CCC4=CC(=O)CCC4(C)C3CCC12C (stereo not drawn) | -7% | 1.4 | . | . | . | 17 | .
CNc1ccccc1-n1ccc(-c2ccccc2)n1 | ? | -1.2 | -0.4 | -4.6 | 0.68 | 1 | 3.6
O=C(CSc1n[nH]c(-c2ccco2)n1)Nc1ccccc1Cl | . | 1.1 | -0.1 | -2.3 | 0.61 | 11 | 0.7
CCc1nn2c(=O)cc(COc3cccc(NC(=O)c4ccco4)c3)nc2s1 | -1% | -4.9 | -0.6 | 3.6 | 0.62 | -3 | 2.1
COc1cc(/C=C(/C#N)C(=O)c2c(C)[nH]c3ccccc23)ccc1OCC#N | ? | 9.6 | 0.1 | -2.9 | . | 14 | .
O=C(Nc1ccc2[nH]ncc2c1)c1ccccc1Br | . | -2.5 | 0.7 | 2.9 | 0.63 | 3 | 1.5
O=C(NNC(=S)Nc1ccc(F)c(Cl)c1)c1ccccc1Br | 11% | 0.8 | -0.3 | 0.2 | 0.62 | -3 | 0.9
Cc1ccccc1NC1=NC(=S)N(c2ccccc2)C12CCOC(C)(C)C2 (stereo not drawn) | 0% | 3.4 | -0.1 | -3.8 | 0.73 | 10 | 1.3
CCC(C)NC(=O)CSc1ncnc2sccc12 (stereo not drawn) | . | 2.4 | 0.6 | 4.2 | 0.63 | -7 | 4.3
CS(=O)(=O)c1ccc(-c2nn[nH]n2)cc1 | 4% | -1.2 | -0.8 | 3.4 | 0.7 | 3 | 1.1
COc1c2ccoc2nc2c(OC)c(OC[C@@H](O)C(C)(C)O)ccc12 | . | -0.8 | 0.5 | -0.4 | . | -6 | -107
Cc1nc2cc(C(=O)OCC(=O)NC3CCS(=O)(=O)C3)ccc2n1-c1ccccc1 (stereo not drawn) | -4% | -12 | 0.0 | 1.4 | 0.72 | -2 | 4.6
Cc1cccc(C)c1NC(=O)CN(C)CC(=O)Nc1ccc(F)c(Cl)c1 | 2% | -2.5 | -0.2 | -7.0 | 0.7 | 4 | 2.7
CCOC(=O)/C=c1\s/c(=C(\C#N)C(N)=O)n(-c2ccccc2)c1=O | ? | 1.8 | 0.4 | 3.5 | . | 11 | .
C[C@@H]1CN([C@@H](C)CO)C(=O)c2cccc(NS(=O)(=O)c3cccs3)c2O[C@H]1CN(C)Cc1ccc(C(F)(F)F)cc1 | . | 5.5 | -0.3 | 15 | . | 1 | 2.1
COc1cc(-c2nc3c[n+](CC(=O)c4ccccc4)ccc3n2C)cc(OC)c1OC | 14% | 0.5 | 1.6 | 1.1 | 0.73 | 6 | 2.2
COc1ccc(/C(C)=N/OC/C(O)=C(\C#N)c2nc3ccccc3[nH]2)c(OC)c1 | 1% | -0.3 | -0.1 | 9.3 | . | -14 | .
Cc1ccc(CN(C)C(=O)c2cc(COc3ccc(F)cc3Cl)on2)o1 | -5% | 1.2 | 0.2 | 1.8 | 0.66 | 1 | -1.9
Cc1[nH]cnc1C(=O)N/N=C/c1ccc([N+](=O)[O-])s1 | 2% | 1.4 | -1.8 | -2.1 | . | -32 | .
Cc1onc(-c2c(F)cccc2Cl)c1C(=O)N(C)CCc1ccccn1 | 8% | -0.2 | 0.5 | 2.9 | 0.67 | 3 | 1.5
COc1ccc2cc(/C(C)=N/NC(=S)Nc3cc(S(=O)(=O)N4CCOCC4)ccc3N3CCOCC3)ccc2c1 | 9% | . | 0.0 | -0.6 | . | . | .
O=P(c1ccccc1)(c1ccccc1)C(O)c1ccco1 (stereo not drawn) | 4% | -2.5 | 0.1 | -4.3 | 0.7 | 2 | 2.8
Cc1ccc2nc(NCC(=O)O)nc(-c3ccccc3)c2c1 | 3% | 1.0 | 0.6 | -1.4 | 0.7 | -3 | -29
COc1cccc(CNC(=O)c2cccc(NC3=NC4CS(=O)(=O)CC4S3)c2)c1 (stereo not drawn) | . | 0.3 | -0.5 | -2.0 | 0.66 | 10 | -1.8
O=C(COc1ccccc1)c1ccccc1 | -5% | -2.1 | . | . | 0.65 | -4 | 4.1
CCOP(=O)(OCC)C(Nc1ccc(F)cc1)c1ccccc1 (stereo not drawn) | -1% | -3.9 | -0.3 | 0.7 | 0.69 | 1 | 1.1
COc1ccc(N2CCN(C(=O)COCc3cc(-c4ccc5c(c4)OCO5)on3)CC2)cc1 | 4% | 4.6 | -1.1 | 5.5 | 0.69 | 19 | 0.9
N#Cc1cccn1-c1nccs1 | 6% | 3.5 | -0.1 | 5.8 | 0.69 | -3 | -0.6
Cc1cccc(NC(=O)Cn2c(=O)n3nc(CCn4nc(C)cc4C)nc3c3ccccc32)c1 | 8% | 1.8 | 0.4 | 1.8 | 0.76 | -15 | 6.2
CCOC(=O)N1CCC(NC(=O)CCC(=O)c2ccccc2)CC1 | 6% | -1.4 | 2.8 | -0.3 | 0.71 | -1 | 0.2
CC(C)NC(=O)CCCn1c(=S)[nH]c2cc3c(cc2c1=O)OCO3 | -1% | -1.4 | 0.8 | 4.3 | 0.75 | -6 | 9.4
O=C(CSc1nnc(Cn2c(=O)sc3ccccc32)n1-c1ccccc1)N1CCCC1 | 27% | 2.1 | 1.3 | -2.4 | 0.69 | -3 | 1.0
Cc1snc(SCc2ccc(F)cc2)c1C#N | 9% | -2.6 | -1.3 | 3.3 | 0.63 | -20 | 1.2
CCCCc1ccc(S(=O)(=O)N2CCN(C(=O)c3ccco3)CC2)cc1 | -2% | 0.8 | -0.2 | 2.6 | 0.68 | -10 | 2.4
CC1Cc2ccccc2N1CC(=O)NC(=O)NCc1ccccc1 (stereo not drawn) | 19% | 0.7 | 0.2 | 7.0 | 0.71 | -15 | 3.4
COC(=O)CSc1ccc2nnc(CCNS(=O)(=O)c3ccc(C)cc3)n2n1 | -5% | -1.9 | -1.0 | -13 | 0.64 | -2 | 1.2
CCOc1ccccc1C(C(=O)NC1CCCC1)N(Cc1ccco1)C(=O)CNC(=O)c1ccco1 (stereo not drawn) | 1% | 0.8 | 0.7 | 7.6 | 0.69 | -4 | 2.4
CCN1C(=O)CS/C1=N\S(=O)(=O)c1ccc(Cl)cc1 | 20% | -2.7 | 0.6 | 2.1 | . | 0 | .
C=CCN(CC=C)CCOc1cc(C)ccc1[N+](=O)[O-] | 4% | -1.0 | 0.1 | -1.9 | 0.69 | 1 | 0.9
CCOC(=O)c1c(S(=O)(=O)NCC(=O)Nc2ccccc2F)c(C)n(C)c1C | 3% | 4.8 | 0.6 | -0.5 | 0.69 | 13 | 3.4
CN(C)S(=O)(=O)c1cccc(NC(=S)NCCc2ccccn2)c1 | -6% | 6.5 | 0.3 | -2.1 | 0.69 | 2 | 3.1
O=C(COc1ccc(C(=S)N2CCCC2)cc1)Nc1ccccc1C(F)(F)F | 32% | 0.5 | 1.3 | -2.2 | . | -7 | .
CC1CCN(C2=C(NS(=O)(=O)c3ccc(Br)cc3)C(=O)c3ccccc3C2=O)CC1 | . | -1.6 | -0.6 | 1.4 | 0.72 | -2 | 7.5
CCO[C@@H]1OC(C(=O)N2CCN(Cc3ccccc3)CC2)=C[C@H](c2cn(C(C)=O)c3ccccc23)[C@H]1CCCO | 1% | -0.5 | 0.0 | 5.4 | . | -5 | 4.7
COc1cc2c3c(c1)/C(=C1/SC(=S)NC1=O)C(=O)N3C(C)(C)C=C2C | ? | -0.1 | 0.5 | 4.9 | 0.74 | 11 | 7.2
CCOc1ncccc1C(=O)Nc1ccc2c(c1)OCO2 | 10% | 4.2 | -0.5 | 0.1 | . | -7 | .
COc1ccc(Cn2c(=O)[nH]c3cc(OC)c(OC)cc3c2=O)cc1 | 25% | -0.4 | 0.2 | 0.0 | 0.68 | 6 | -12
Cc1nc2c(ccc3nc(NC(=O)c4ccc5c(c4)OCCO5)sc32)s1 | -24%&-34% | 21 | -4.3 | 3.7 | 0.64 | 4 | -25
The list goes on.
SMILES | Vif TR-FRET | HNF4A DNA FP | Bfl-1 A1 inh | LANA-H2B inh | E coli growth | B2AR ag | UCH37 inh
COc1ccc(NS(=O)(=O)c2ccc(C)c(C(=O)NNC(=O)c3csc(N4CCOCC4)n3)c2)cc1 | 7% | 3.4 | 1.1 | 2.0 | 0.7 | -6 | 2.3
Cc1cc(C)cc(Nc2ccc([N+](=O)[O-])nc2[N+](=O)[O-])c1 | -3% | 1.5 | -0.7 | -1.2 | 0.71 | 1 | 6.4
Cc1cc(C)n(-c2nnc(NC34CC5CC(CC(C5)C3)C4)nn2)n1 | . | -0.8 | 0.6 | -2.8 | . | -7 | .
CC1CCCN(CC(=O)Nc2cc(S(=O)(=O)N3CCOCC3)ccc2N2CCCC2)C1 (stereo not drawn) | 0% | 0.1 | -0.6 | -1.8 | . | -9 | .
CCOc1ccc(C(=O)NC(=S)Nc2cccc(NC(=O)c3ccco3)c2)cc1[N+](=O)[O-] | 7% | -2.6 | 0.9 | -3.0 | 0.69 | -10 | 1.3

An excerpt from above with just E coli growth and HNF4A DNA FP:
Compound	E coli growth	HNF4A DNA FP
Cc1cc(C)cc(Nc2ccc([N+](=O)[O-])nc2[N+](=O)[O-])c1	0.71	1.5
CC1CCCN(CC(=O)Nc2cc(S(=O)(=O)N3CCOCC3)ccc2N2CCCC2)C1 (stereo not drawn)	.	0.1
Cc1cc(C)n(-c2nnc(NC34CC5CC(CC(C5)C3)C4)nn2)n1	.	-0.8

Screening results: PubChem BioAssay, several laboratories

Random draw from the library; about 2.1% have a hit in one of these screens.
